Screening results as filed in PubChem.
FGF22 binding – FGF22 (human) thermal shift binding | calls only at 9.99 µM | Q9HCT0 | recombinant FGF22 thermal shift, SYPRO orange fluorescence; percent of sucrose octasulfate shift, DMSO zero | AID 651658 | actives 1.5% (n = 340,000);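 active = melting point raised past a set limit in the mean and every replicate; three in four hits are not shown here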
Target sequence (Q9HCT0 whole entry, looked up): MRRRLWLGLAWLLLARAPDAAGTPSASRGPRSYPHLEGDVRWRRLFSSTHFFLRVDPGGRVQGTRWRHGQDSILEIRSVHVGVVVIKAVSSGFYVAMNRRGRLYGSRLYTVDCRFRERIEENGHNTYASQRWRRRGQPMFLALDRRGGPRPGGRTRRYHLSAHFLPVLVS
Calls only; i = inactive.

FGF22 binding | SMILES
i | C[C@H]1CN([C@@H](C)CO)S(=O)(=O)c2ccc(/C=C/c3ccccc3)cc2O[C@@H]1CN(C)Cc1cccnc1
i | C=CCOC(=O)[C@H]1[C@@H]2C(=O)O[C@@H](c3ccccc3)[C@@H](c3ccccc3)N2[C@@H](c2ccc(OCCOC(=O)[C@H]3C[C@H]4C(=O)NCC(=O)N4[C@H]3c3ccc(O)cc3)cc2)[C@]12C(=O)Nc1ccccc12
i | C=CC[C@]1(C(=O)NCCCOC)COC(c2ccc(OCCCO)cc2)=N1
i | COc1ccc([Si](C)(C)[C@@H]2[C@@H](CCO)O[C@]3(C(=O)N(Cc4ccccc4)c4ccc(N5C(=O)c6cccc7cccc5c67)cc43)[C@H]2C)cc1
i | C[C@H](CO)N1C[C@H](C)[C@@H](CN(C)CC2CCCC2)Oc2ncc(C#CCc3ccccc3)cc2C1=O
i | C=CC1c2ccccc2/C=C(C(=O)OC)\C(C(=O)OC)=C/N1Cc1ccc(OC)cc1 (stereo not drawn)
i | O=[N+]([O-])c1ccc(C(O)CC(O)CSc2nc(-c3ccccc3)c(-c3ccccc3)o2)cc1 (stereo not drawn)
i | COc1ccc(S(=O)(=O)N2CCCCN3[C@H](C2)[C@H](c2ccc(C4=CCCCC4)cc2)[C@@H]3CO)cc1

Sorted by heavy-atom count (low to high): part of the list above
FGF22 binding | SMILES
i | C=CC1c2ccccc2/C=C(C(=O)OC)\C(C(=O)OC)=C/N1Cc1ccc(OC)cc1 (stereo not drawn)
i | COc1ccc(S(=O)(=O)N2CCCCN3[C@H](C2)[C@H](c2ccc(C4=CCCCC4)cc2)[C@@H]3CO)cc1
i | COc1ccc([Si](C)(C)[C@@H]2[C@@H](CCO)O[C@]3(C(=O)N(Cc4ccccc4)c4ccc(N5C(=O)c6cccc7cccc5c67)cc43)[C@H]2C)cc1

Returning to the listing with the seven entries that preceded the break.
FGF22 binding | SMILES
i | C=CCOC(=O)[C@H]1[C@@H]2C(=O)O[C@@H](c3ccccc3)[C@@H](c3ccccc3)N2[C@@H](c2ccc(OCCOC(=O)[C@H]3C[C@H]4C(=O)NCC(=O)N4[C@H]3c3ccc(O)cc3)cc2)[C@]12C(=O)Nc1ccccc12
i | C=CC[C@]1(C(=O)NCCCOC)COC(c2ccc(OCCCO)cc2)=N1
i | COc1ccc([Si](C)(C)[C@@H]2[C@@H](CCO)O[C@]3(C(=O)N(Cc4ccccc4)c4ccc(N5C(=O)c6cccc7cccc5c67)cc43)[C@H]2C)cc1
i | C[C@H](CO)N1C[C@H](C)[C@@H](CN(C)CC2CCCC2)Oc2ncc(C#CCc3ccccc3)cc2C1=O
i | C=CC1c2ccccc2/C=C(C(=O)OC)\C(C(=O)OC)=C/N1Cc1ccc(OC)cc1 (stereo not drawn)
i | O=[N+]([O-])c1ccc(C(O)CC(O)CSc2nc(-c3ccccc3)c(-c3ccccc3)o2)cc1 (stereo not drawn)
i | COc1ccc(S(=O)(=O)N2CCCCN3[C@H](C2)[C@H](c2ccc(C4=CCCCC4)cc2)[C@@H]3CO)cc1
i | O=S(=O)(c1ccc(-c2ccccc2)cc1)N1CCN(Cc2ccc(OCCO)cc2)CC1
i | C#CCN([C@H](/C=C/C1CC1)[C@@H](O)Cc1ccccc1)[C@@H](Cc1ccccc1)C(=O)OC
i | C[C@H]1CN([C@@H](C)CO)C(=O)Cc2cc(NC(=O)Cc3cn(C)c4ccccc34)ccc2O[C@H]1CN(C)C(=O)NC1CCCCC1
i | O=S(=O)(c1ccc(Cl)cc1)N1CCN(Cc2cccc(OCCO)c2)CC1
i | COc1ccc(COC[C@@]23Oc4ccccc4[C@@H](NC(=O)N2C)[C@H]3CO)cc1
i | CCC(=O)N1C[C@H](C)[C@H](OC)CN(C)C(=O)c2cc(NC(=O)Nc3cccc(F)c3)ccc2OC[C@H]1C
i | C=CC(COC(C)=O)NS(=O)(=O)c1ccc(Br)cc1 (stereo not drawn)
i | CCOC(=O)/C(=C\Nc1ccc(OCc2ccccc2)cc1)NC(=O)c1ccccc1

Next compounds
FGF22 binding | SMILES
i | COc1ccc(S(=O)(=O)Nc2ccc3c(c2)CC(=O)N([C@H](C)CO)C[C@H](C)[C@@H](CN(C)Cc2ccc(C(F)(F)F)cc2)O3)cc1
i | COCC1=C([C@H](O)c2ccccc2)[C@H](CO)[C@@H]2C(=O)N(Cc3ccccc3)C(=O)[C@@H]2C1
i | O=C(NCc1nc2ccccc2[nH]1)C1=C[C@@H](c2ccc3c(c2)OCO3)C[C@@H](OCCCCO)O1
i | C[C@H]1CN([C@@H](C)CO)C(=O)c2cccc(NC(=O)Nc3ccc(C(F)(F)F)cc3)c2O[C@H]1CN(C)CC1CC1
i | CCOC(=O)C(CNc1ccc(OCc2ccccc2)cc1)NC(=O)c1ccccc1 (stereo not drawn)
i | O=c1n(-c2ccccc2)c(=O)n2n1CC(COc1ccccc1)=C1[C@@H](c3ccccc3)OB(O)C[C@@H]12
i | CCO[C@H]1OC(C(=O)N2CCCC2)=C[C@@H](c2ccc(Br)cc2)[C@@H]1CCCO
i | COc1ccccc1NC(=O)N1CCCCN2[C@H](CO)[C@H](c3ccc(-c4ccccc4)cc3)[C@H]2C1

The list goes on.
FGF22 binding | SMILES
i | COc1ccc(C#Cc2ccc3c(c2)[C@]2(C(=O)N3)[C@H](c3ccc(OCCO)cc3)N3[C@H](c4ccccc4)[C@H](c4ccccc4)OC(=O)[C@H]3[C@@H]2C(=O)NC[C@H](O)c2ccccc2)cc1
i | COc1ccc(C#Cc2ccc3c(c2)[C@]2(C(=O)N3)[C@H](C(=O)N3CCCCCCC3)[C@H]3C(=O)O[C@H](c4ccccc4)[C@H](c4ccccc4)N3[C@@H]2c2ccccc2OCCO)cc1
i | C[C@H]1CN([C@@H](C)CO)S(=O)(=O)c2ccc(C#Cc3cccc(F)c3)cc2O[C@H]1CN(C)CC1CC1
i | NC(=O)NCC#Cc1ccc2c(c1)[C@]1(C(=O)N2)[C@H](c2ccccc2OCCO)N2[C@H](c3ccccc3)[C@H](c3ccccc3)OC(=O)[C@H]2[C@@H]1C(=O)N1CCN(c2ncccn2)CC1
i | CC(=O)n1cc([C@@H]2C=C(C(=O)N3CCCCCCC3)O[C@H](OCc3ccc(CO)cc3)C2)c2ccccc21
i | O=C(c1cccc(F)c1)N1CCCCN2[C@H](C1)[C@H](c1ccc(-c3ccc(F)cc3)cc1)[C@@H]2CO
i | OC[C@H]1[C@H](c2ccc(-c3cccnc3)cc2)[C@H]2CN(CC3CCOCC3)CCCCN21
i | O=C(NCCN1CCOCC1)[C@@]1(CCS(=O)(=O)c2ccccc2)COC(c2ccc(OCCCO)cc2)=N1

New compounds follow
FGF22 binding | SMILES
i | COc1cccc(C#Cc2ccc3c(c2)[C@H]2[C@H](CCN2C(=O)c2ccc4c(c2)OCO4)[C@H](CO)N3)c1
i | O=C(C1CCCC1)N1CCCCN2[C@@H](CO)[C@@H](c3ccc(-c4ccncc4)cc3)[C@@H]2C1
i | COc1cc(OC)c(CNS(=O)(=O)c2ccc(Br)cc2)c(OC)c1
i | COC(=O)c1cc2c(c3c4cc(F)ccc4n(S(=O)(=O)c4cccc(C)c4)c13)C(=O)N(Cc1ccc(C(F)(F)F)cc1)C2
i | COC(=O)C(CC#Cc1ccc2c(c1)[C@]1(C(=O)N2)[C@H](c2ccc(O)cc2)N2[C@H](c3ccccc3)[C@H](c3ccccc3)OC(=O)[C@H]2[C@@H]1C(=O)NC[C@H](O)c1ccccc1)C(=O)OC
i | CO[C@H]1CN(C)C(=O)c2cc(NS(=O)(=O)c3ccccc3C)ccc2OC[C@@H](C)N(S(C)(=O)=O)C[C@@H]1C
i | COc1cc(O)c2c(c1)oc(=O)c1c3cc(O)c(O)cc3oc21
i | NCCCCCNC(=O)[C@H]1C[C@H]2C(=O)NCC(=O)N2[C@H]1c1cccc(OCCO)c1

Other structures follow:
FGF22 binding | SMILES
i | COc1ccc(CN2C(C)C3C(C)=CC2C2C(=O)N(C)C(=O)C32)cc1 (stereo not drawn)
i | C[C@H](O)C#Cc1ccc([C@@H]2[C@H]3CN(S(=O)(=O)c4ccccc4)CCCCN3[C@H]2CO)cc1
i | O=C1N(Cc2ccccc2)Cc2ccccc2[C@@H]2OC(c3ccc(OCCCO)cc3)=N[C@]12CCS(=O)(=O)c1ccccc1
i | COC(=O)c1c2oc(c1C(=O)OC)C(=O)N[C@@H](Cc1ccccc1)Cn1cc(nn1)CNC(=O)[C@@H](Cc1ccccc1)NC(=O)N[C@@H](CO)CC2
i | O=C(NCc1ccco1)C(=O)NN=Cc1ccccc1O
i | CN(C)C(=O)c1cccc(-c2ccc([C@@H]3[C@H]4CN(C(=O)C5CCCC5)CCCCN4[C@H]3CO)cc2)c1
i | CCCNC(=O)Cc1ccc(N)cc1
i | COc1cc(CO)cc(I)c1O[C@H]1C=C(C(=O)NCCO)C[C@@H](NCc2ccccc2F)[C@@H]1O

Following part:
FGF22 binding | SMILES
i | O=C1O[C@@H](c2ccccc2)[C@@H](c2ccccc2)N2[C@@H](c3ccc(O)cc3)[C@]3(C(=O)Nc4ccc(C#CC5(O)CCCCCC5)cc43)[C@@H](C(=O)NC[C@H](O)c3ccccc3)[C@H]12
i | COc1cccc(-c2ccc([C@@H]3[C@H](CO)N4CCCCN(CC5CCOCC5)C[C@@H]34)cc2)c1
i | NCCCCCNC(=O)[C@@H]1C[C@@H]2C(=O)N[C@@H](Cc3ccccc3)C(=O)N2[C@@H]1c1cccc(OCCO)c1
i | COc1ccc([Si](C)(C)[C@H]2[C@H](CCO)O[C@@]3(C(=O)N(Cc4cccc(N5CCOC5=O)c4)c4ccccc43)[C@@H]2C)cc1
i | COc1cc2c(cc1OC)CN(C(=O)[C@H]1[C@@H]3C(=O)O[C@@H](c4ccccc4)[C@@H](c4ccccc4)N3[C@@H](c3ccccc3OCCO)[C@]13C(=O)Nc1ccc(C#CCCO)cc13)CC2
i | O=C(Nc1ccccc1)NC1(c2cn(CC(=O)N3CCN(c4ccccc4)CC3)nn2)CCCCC1
i | O=C(C1=C[C@@H](c2ccc(C(F)(F)F)cc2)C[C@@H](OCc2ccc(CO)cc2)O1)N1CCCCCCC1
i | O=C(NCc1nc2ccccc2[nH]1)C1=C[C@H](c2ccc(Br)cc2)C[C@H](OCCCCO)O1

(next part)
FGF22 binding | SMILES
i | OC[C@H]1[C@H](c2ccc(C3=CCCC3)cc2)[C@H]2CN(CCC(F)(F)F)CCCCN21
i | COC(=O)[C@@]1(CCS(=O)(=O)c2ccccc2)N=C(c2ccc(OCCCO)cc2)O[C@H]1c1ccccc1CN=[N+]=[N-]
i | C=CCOC(=O)[C@H]1[C@@H]2C(=O)O[C@@H](c3ccccc3)[C@@H](c3ccccc3)N2[C@@H](c2ccc(OCCOC(=O)[C@H]3C[C@H]4C(=O)N[C@@H](CC(C)C)C(=O)N4[C@H]3c3ccc(O)cc3)cc2)[C@]12C(=O)Nc1ccccc12
i | COCCCNC(=O)[C@@]1(Cc2ccccc2N=[N+]=[N-])N=C(c2ccc(OCCCO)cc2)O[C@H]1c1ccccc1N=[N+]=[N-]
i | C=CCNC(=O)[C@H]1[C@@H]2C(=O)O[C@@H](c3ccccc3)[C@@H](c3ccccc3)N2[C@@H](c2ccc(OCCO)cc2)[C@]12C(=O)Nc1ccc(C#CCC(C(=O)OC)C(=O)OC)cc12
i | OC[C@@H]1[C@@H](c2ccc(-c3cccnc3)cc2)[C@@H]2CN(CC3CCOCC3)CCCCN12
i | COC(=O)CC#C[C@H](C)[C@@H](NS(C)(=O)=O)C1CCCCC1
i | CN(C)C(=O)c1ccc(-c2ccc([C@@H]3[C@@H](CO)N4CCCCN(C(=O)C5CCC5)C[C@H]34)cc2)cc1

(listing goes on)
FGF22 binding | SMILES
i | O=C(C1CC1)N1CCCCN2[C@H](C1)[C@@H](c1ccc(C#CC3CC3)cc1)[C@@H]2CO
i | CCCC#Cc1ccc([C@H]2[C@@H](CO)N3CCCCN(CC4CC4)C[C@@H]23)cc1
i | COCCCNC(=O)[C@@]1(CCS(=O)(=O)c2ccccc2)N=C(c2ccc(OCCCO)cc2)O[C@H]1c1ccccc1
i | OC[C@@H]1[C@H](c2ccc(-c3cccnc3)cc2)[C@H]2CN(CC3CCOCC3)CCCCN12
i | COc1ccc(NC(=O)N2CCCCN3[C@@H](CO)[C@H](c4ccc(C5=CCCC5)cc4)[C@@H]3C2)cc1
i | O=S(=O)(N[C@@H]1CCCN(Cc2ccc(OCCO)cc2)C1)c1ccc(-c2ccccc2)cc1
i | COCC#Cc1ccc(CC[C@H]2O[C@H]3CC[C@H](CO)O[C@H]3C[C@H]2NC(=O)Nc2c(C)noc2C)cc1
i | CCS(=O)(=O)N[C@H]1C=C[C@@H](CC(=O)NCc2ccc(F)cc2)O[C@H]1CO

(cont.)
FGF22 binding | SMILES
i | C[C@H](CO)N1C[C@H](C)[C@H](CN(C)C(=O)Nc2cc(F)ccc2F)Oc2cc(-c3cccc(C#N)c3)ccc2S1(=O)=O
i | O=C(Nc1ccc(F)cc1)N1CCCCN2[C@H](CO)[C@@H](c3ccc(-c4ccccc4F)cc3)[C@H]2C1
i | CC(C)c1cn([C@H]2C[C@@H]3O[C@H](CO)CC[C@@H]3O[C@@H]2CCc2ccc(C#CC3(O)CCCC3)cc2)nn1
i | COc1ccccc1C#Cc1ccc([C@H]2[C@H]3CN(C(=O)C4CC4)CCCCN3[C@H]2CO)cc1
i | CCCNC(=O)C[C@H]1CC[C@@H]2[C@@H](COc3ccc(NC(=O)NCC)cc3C(=O)N2C)O1
i | CNC[C@H]1Oc2ncc(-c3ccccc3C)cc2C(=O)N([C@H](C)CO)C[C@H]1C
i | COc1ccc(NC(=O)N2CCCCN3[C@H](CO)[C@H](c4ccc(C#Cc5ccccc5)cc4)[C@H]3C2)cc1
i | N#CCC1(O)C(=O)Nc2ccccc21 (stereo not drawn)

Following part.
FGF22 binding | SMILES
i | COc1ccccc1C#Cc1ccc([C@H]2[C@H](CO)N3CCCCN(C(=O)C4CC4)C[C@@H]23)cc1
i | Cc1ccc(NC(=O)NCc2ccco2)cc1[N+](=O)[O-]
i | O=c1[nH]c(-c2ccccc2)cn1C1CCN(Cc2ccc(-c3nc4ccccc4nc3-c3ccccc3)cc2)CC1
i | COc1ccccc1C#Cc1ccc([C@@H]2[C@@H](CO)N3CCCCN(C(=O)C4CCCC4)C[C@@H]23)cc1
i | COc1ccc(COC[C@]23NC(=S)N(C(=O)c4ccccc4)[C@H](c4ccccc4O2)[C@H]3CO[Si](C)(C)C(C)(C)C)cc1

The list is partial, so the mix of outcomes need not match the whole.
